UCH37 inh: inhibitors of human deubiquitinating enzyme UCH37; purified proteasome/UCH37, Ub-AMC cleavage fluorescence; hit rate 0.33% among 330,000; inhibition, % (test concentration not listed); AID 588478; Q9Y5K5;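 active = mean of two replicates above 20%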;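 note: 0% = compound-free wells with enzyme and 100% = wells lacking proteasome; stock transfer was 100 nL into about 20 µL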
Target sequence (Q9Y5K5 whole entry, looked up): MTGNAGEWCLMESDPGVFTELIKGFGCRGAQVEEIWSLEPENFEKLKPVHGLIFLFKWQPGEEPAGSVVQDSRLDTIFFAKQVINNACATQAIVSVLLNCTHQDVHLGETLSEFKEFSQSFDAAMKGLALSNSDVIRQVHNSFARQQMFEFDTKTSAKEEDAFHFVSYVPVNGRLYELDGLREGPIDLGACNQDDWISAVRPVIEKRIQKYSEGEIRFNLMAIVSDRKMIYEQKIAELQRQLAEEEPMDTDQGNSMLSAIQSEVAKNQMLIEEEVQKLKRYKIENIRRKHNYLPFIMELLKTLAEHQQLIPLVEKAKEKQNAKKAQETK
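Schedule: 30 min plus 25 min, room temperature / Material: human UCH37 within purified proteasomes / Technique: AMC fluorescence intensity at 355/460 nm / Buffer or medium: pH 7.4 Tris-HCl (50 mM) with ovalbumin, ATP-MgCl2, DTT / Controls: wells without proteasome as full block, compound-free enzyme plus substrate as uninhibited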
RanGTP-Imp inh: inhibitors of RanGTP-importin-beta interaction, primary screen, biochemical, FRET, CFP-Ran, YFP-importin-beta, homogeneous | cell-free CFP-Ran/YFP-importin-beta FRET ratio | inhibition, % (concentration not given with the values) | hit rate 1.1% among 300,000 | AID 2216;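 active = most replicates above 15%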;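 note: 0% = DMSO wells and 100% = Ran loaded with GDP instead of GTP; wells of about 40 µL received 100 nL stock; the first replicate is given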
LANA-H2B inh: blocks KSHV LANA binding to histone H2A/H2B | Q9QR71 | cell-free LANA-H2A/H2B peptide, fluorescence polarization | inhibition, % (no concentration beside the values) | hit rate 0.6% among 320,000 | AID 2629; in the data active = inhibition mostly above about 10%, no sharp cut-off; inactive = mostly below about 6.7%;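 note: stock transfer was 7.5 nL into about 10 µL; 0% = median of vehicle wells and 100% = median of positive control wells; one replicate is shown; the record names a cut of 25% in any replicate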
Beta apoptosis: beta cell apoptosis inhibition; hit rate 0.8% among 300,000; protection from apoptosis, % (no concentration beside the values); AID 435005; INS-1E cytokine-induced death, ATP luminescence, 48 h; percent of positive-control rescue, neutral wells zero;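 active = all replicates at 75% or more, or half of them and the mean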;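 note: 0% = cytokine-treated negative control wells and 100% = positive control rescue; higher means more ATP so stronger rescue from cytokine killing; wells of about 40 µL received 100 nL stock; the first replicate is given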
A1 inh: inhibitors of the anti-apoptotic protein A1, read as caspase activation; MEF A1-2A-BIM cells, Caspase-Glo 3/7 luminescence, 3 h; percent of clofoctol response, vehicle zero; AID 2462; hit rate 0.066% among 330,000; caspase activation, % (no concentration beside the values);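 active = over half of replicate activation scores above 10%, or exactly half above 10 with the replicate mean above 10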;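 note: wells of about 30 µL received 50 nL stock; many hits fall short of the cut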
Calb FLC: affects C. albicans growth with fluconazole; C. albicans CaCi-2 (fluconazole-resistant clinical isolate) + fluconazole, Alamar Blue growth, 48 h; hit rate 0.57% among 300,000; AID 1979; growth inhibition, % (no concentration beside the values);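 active = most replicates above 75%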;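 note: all wells also contain fluconazole at 8 µg/ml as a sub-toxic cotreatment; 0% = median of DMSO wells and 100% = median of geldanamycin control wells; wells of about 8 µL received 7.5 nL stock; the first replicate is given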
B2AR ag: activates human beta-2 adrenergic receptor causing internalization. Am2.2-beta2AR cells, FAP receptor internalization, flow cytometry; reference of the scale not given here. response, % (concentration not given with the values). P07550. hit rate 0.43% among 340,000;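 active = response above a set limit, near 3 SD of response in nonfluorescent compounds, cut at about 42% in these data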;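 note: stock transfer was 100 nL into about 11 µL; a reference agonist was the positive control; negative values mostly stem from fluorescent compounds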
Target sequence (P07550 whole entry, looked up): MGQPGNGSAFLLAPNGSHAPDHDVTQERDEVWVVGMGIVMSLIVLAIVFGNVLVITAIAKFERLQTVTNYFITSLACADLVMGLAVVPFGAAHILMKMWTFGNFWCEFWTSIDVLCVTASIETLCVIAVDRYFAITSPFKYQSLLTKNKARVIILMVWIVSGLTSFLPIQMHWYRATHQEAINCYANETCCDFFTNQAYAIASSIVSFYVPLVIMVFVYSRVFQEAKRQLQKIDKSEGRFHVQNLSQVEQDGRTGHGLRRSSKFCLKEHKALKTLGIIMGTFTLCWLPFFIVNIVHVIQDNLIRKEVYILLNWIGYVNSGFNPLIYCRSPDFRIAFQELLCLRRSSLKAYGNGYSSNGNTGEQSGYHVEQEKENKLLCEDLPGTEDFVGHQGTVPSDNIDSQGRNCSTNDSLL
T cruzi inh: blocks replication of Trypanosoma cruzi; T. cruzi beta-gal in NIH3T3, luminescence, 90 h; inhibition, % (concentration not given with the values); hit rate 1.4% among 300,000;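 active = mean inhibition across valid replicates above about 55%, limit read from the data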;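 note: signal also drops with host cell toxicity which is not excluded here; 0% = plate median of DMSO wells and 100% = zero luminescence signal; higher percent means less beta-gal luminescence so fewer parasites; stock transfer was 50 nL into about 50 µL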
Numbers without * were called inactive; x = no result given.

SMILES | UCH37 inh | RanGTP-Imp inh | LANA-H2B inh | Beta apoptosis | A1 inh | Calb FLC | B2AR ag | T cruzi inh
COc1ccc(C2C(C(=O)Nc3cccc(C)n3)c3ccccc3C(=O)N2C)cc1OC (stereo not given) | 5.0 | x | -4.3 | -4 | 1.0 | x | 4 | x
O=C(Nc1ccccc1NC(=O)c1csnn1)c1csnn1 | -0.7 | 4.5 | -4.8 | x | 2.0 | 16 | -7 | -5
COc1ccc(S(=O)(=O)N(C(=O)C(C)C)c2ccc3oc(=O)sc3c2)cc1 | 6.4 | 0.2 | 5.5 | -14 | 0.3 | 13 | 8 | -4
CC1CCCCN1C(=O)COc1ccc(S(=O)(=O)N2CCCC2)cc1[N+](=O)[O-] (stereo not given) | 4.5 | x | -1.8 | 3 | -1.6 | x | -4 | x
O=C(NCCN1CCCC1)c1ccccc1Cl | -0.2 | -1.5 | -4.3 | -1 | -0.6 | 2 | 1 | 2
COc1ccc(S(=O)(=O)Nc2c(NC3CCCCC3)c3ccccc3oc2=O)cc1Cl | -8.3 | 4.7 | 2.1 | 9 | -0.1 | 0 | 5 | 11
COc1ccccc1C(=O)OCC(=O)Nc1ccc(Cl)cn1 | 6.1 | 6.9 | 3.6 | -6 | 0.7 | 1 | 5 | -10
Cn1nnc(NC(=S)NC(=O)c2ccccc2)n1 | 4.7 | 1.7 | -0.2 | 1 | 0.6 | 7 | -3 | -5
COc1ccc(-n2nc(C(=O)NCC(=O)N3CCN(c4ccccn4)CC3)c3ccccc3c2=O)cc1Cl | -4.2 | -2.1 | 1.0 | 3 | 0.8 | 3 | 3 | 13
COc1ccc(NC(=O)c2ncn[nH]2)cc1 | 0.4 | 2.6 | -0.5 | 0 | -1.2 | -6 | 2 | -15
O=C1C(Cc2ccccc2)C(c2ccccc2)N1c1ccccc1 (stereo not given) | -2.5 | 2.5 | 3.7 | -2 | -0.1 | 13 | 4 | 21
Cc1ccc(S(=O)(=O)NC(C(=O)Oc2ccc3c(C(F)(F)F)cc(=O)oc3c2)c2ccccc2)cc1 (stereo not given) | -254 | 36* | 1.1 | 9 | -1.0 | -3 | -8 | -18
O=[N+]([O-])c1ccc(-c2nn(-c3ccccc3)cc2/C=N/n2c(-c3ccncc3)n[nH]c2=S)cc1 | x | 3.6 | -2.1 | -5 | 0.6 | -1 | 22 | 3
CCCCNS(=O)(=O)c1ccc(S(=O)(=O)NCc2ccncc2)cc1 | 0.5 | 1.7 | 4.9 | x | -0.6 | 1 | -2 | -21
CN1N=C(C(=O)N2CCCC(C(=O)c3cccc(C(F)(F)F)c3)C2)CCC1=O (stereo not given) | 2.6 | 7.4 | 0.1 | -2 | -0.2 | 10 | -2 | 15
CCOC(=O)CCCNC(=O)COC(=O)c1cc2ccccc2cc1O | -2.1 | -0.9 | 0.7 | 2 | 0.1 | 4 | 7 | 4
OC(CN1c2ccccc2Sc2ccccc21)Cn1nnc2ccccc21 (stereo not given) | 3.1 | -3.3 | -0.1 | 5 | 0.1 | 18 | 1 | -1
O=C(CSc1nnnn1C1CCCC1)NCCc1ccccc1 | 5.5 | 3.3 | 1.8 | -1 | -0.2 | 12 | -6 | 10
CCC(=O)Nc1sc(C(=O)N2CCCCC2)c(C)c1C#N | 2.0 | 2.0 | 2.3 | -2 | -0.3 | 26 | -9 | 16
Cc1ccc(C(=O)NNC(=O)CSc2nnc3ccccn23)cc1 | 0.0 | x | -2.6 | -5 | 1.8 | x | -4 | x
CCOC(=O)CN1C(=O)S/C(=C/c2ccc(C)o2)C1=O | 4.4 | 1.4 | 1.2 | -1 | -0.6 | -3 | 11 | 5
Cc1ccc(S(=O)(=O)/N=C(/c2ccccc2)N2CCOCC2)cc1 | x | 1.8 | 3.9 | -2 | -1.1 | -11 | 4 | -5
CC(=O)Nc1ccc(NC(=O)c2nccnc2C(=O)O)cn1 | 1.5 | 4.0 | 4.3 | 0 | -0.4 | 3 | -5 | -16
COc1ccc(C(=O)OCC(=O)N2CCCCCC2)cc1S(=O)(=O)N1CCOCC1 | 0.3 | x | 1.4 | 0 | -1.0 | x | -7 | x
O=C(CN1CCOCC1)NCCc1ccccc1 | 4.1 | -5.8 | 6.5 | -10 | 0.0 | 3 | -4 | -22
COc1ccc2c(/C=N/NS(=O)(=O)c3ccc(C)cc3)c[nH]c2c1 | x | 2.5 | -9.0 | -3 | -0.5 | 11 | 7 | -21
Cc1c(CCC(=O)O)c(=O)oc2c(C)c3occ(-c4ccc(Cl)cc4)c3cc12 | -20 | 6.1 | -0.8 | 11 | 1.0 | 4 | -1 | 5
COc1ccc(CN(Cc2ccc(C(=O)O)cc2)C(=S)Nc2cc(C)cc(C)c2)cc1OC | 4.3 | -0.7 | 0.2 | -6 | 0.6 | 16 | -2 | 7
Cc1ccc(C(=O)NCC(=O)OCC(=O)NCCNC(=O)COC(=O)CNC(=O)c2ccc(C)cc2)cc1 | 3.7 | 1.8 | -0.5 | 0 | -1.2 | 0 | -9 | 1
Cc1noc(C)c1CSCC(=O)Nc1nc2ccc(F)cc2s1 | 2.1 | 4.2 | -2.4 | -6 | -0.2 | 8 | -6 | 8
CCC(C)(NC(=O)c1ccccn1)C(=O)NC1CCCC1 (stereo not given) | 4.4 | 3.1 | -2.9 | 0 | 1.7 | -1 | 8 | -9
COc1cc(NC(=O)NCc2ccncc2)cc(OC)c1OC | 1.1 | -2.8 | 2.1 | x | 1.3 | -3 | 2 | -9
COc1cccc(NC(=S)N/N=C2\CC3CCC2(C)C3(C)C)c1 (stereo not given) | x | -2.5 | 7.3 | 18 | 0.2 | -1 | 2 | 19
Fc1cnc(N2CCOCC2)nc1N1CCc2ccccc21 | 2.0 | 1.5 | 0.0 | -3 | -0.2 | 6 | -3 | 28
O=C(/C=C/c1ccco1)Nc1ccc(C(=O)N2CCOCC2)cc1 | 13 | -0.2 | -7.6 | -2 | -0.7 | -6 | 16 | -63
Cc1nc(CN(C)Cc2nc(Cc3ccccc3Cl)no2)cs1 | 1.8 | -1.9 | -1.5 | -5 | 0.2 | -5 | 2 | -12
N#Cc1ccccc1NC(=O)COC(=O)c1ccc2c(c1)OCO2 | -0.5 | x | -3.3 | -1 | 0.2 | x | 3 | x
Cc1ccc(NC(=O)COC(=O)C2CC2)cc1S(=O)(=O)N1CCOCC1 | -1.9 | x | 0.1 | 2 | -0.1 | x | -3 | x
N#CCCN(CCN1CCCC1)S(=O)(=O)c1ccc(-c2ccc([N+](=O)[O-])cc2)cc1 | 7.1 | -1.7 | -12 | -3 | 2.7 | 0 | -5 | 13
O=C(NCCC1=CCCCC1)c1cc(S(=O)(=O)N2CCOCC2)c(Cl)cc1Cl | -0.3 | -2.9 | -4.6 | 3 | 0.7 | -8 | -7 | 27
CCCNC(=O)NC(C(=O)OC)C12CC3CC(CC(C3)C1)C2 (stereo not given) | -1.8 | -11 | 0.7 | 4 | 1.6 | -12 | -3 | -8
COc1ccc(CCNC(=O)CSc2cccc3cccnc23)cc1OC | -2.6 | 1.2 | -8.3 | x | 0.3 | 0 | 0 | 9
CC(=O)c1cccc(NC(=O)COC(=O)c2ccc(S(C)(=O)=O)c([N+](=O)[O-])c2)c1 | 3.2 | -1.9 | 2.4 | -39 | -0.1 | 12 | 68* | 5
Cc1ccc(N2CCN(S(=O)(=O)c3ccc4oc(=O)ccc4c3)CC2)c(C)c1 | 4.4 | 6.1 | -2.2 | 5 | 0.3 | 11 | -5 | -2
O=c1[nH]c(CN2CCN(c3ccc([N+](=O)[O-])cc3)CC2)nc2ccsc12 | 6.1 | -3.6 | -7.3 | -4 | 0.3 | 5 | 2 | 6
O=C(O)c1cc(S(=O)(=O)O)cc(Nc2c3ccccc3nc3ccccc23)c1O | -70 | 102* | -2.1 | -10 | 0.9 | 7 | -4 | 3
COCCn1c(SCC(=O)Nc2ccccc2OC)nc2c([nH]c3ccccc32)c1=O | -1.9 | x | 1.2 | 4 | 0.1 | x | 10 | 14
CCOC(=O)C1CCCN(C(=O)CCCn2nnnc2CN2CCOCC2)C1 (stereo not given) | -2.3 | 0.2 | x | x | x | -13 | 2 | -2
Cn1cccc1Cc1nnc(SCC(=O)NCC2CCCO2)n1C (stereo not given) | 0.5 | 2.5 | -3.3 | 1 | 0.8 | 18 | 6 | 8
CCc1ccc(NC(=S)NC2CC3CCCC(C2)N3Cc2cccs2)cc1 (stereo not given) | 6.0 | 5.4 | -2.5 | x | 0.8 | -19 | 7 | 56*
Cc1[nH]nc2c1C(c1ccc(F)cc1)C1=C(CC(C)(C)CC1=O)N2 (stereo not given) | -132 | 0.7 | 0.0 | 1 | -0.1 | -5 | -3 | -1
Cc1ccc(C2(C)NC(=O)N(CC(=O)Nc3ccccc3C(=O)NC3CCCC3)C2=O)cc1 (stereo not given) | -3.2 | -12 | 2.6 | 0 | -1.2 | 4 | 7 | 9
NC(=O)COC(=O)CCCc1c[nH]c2ccccc12 | 1.4 | 0.6 | -5.0 | -4 | 0.6 | -2 | 8 | -13
O=C1C=C(c2ccc(Cl)c(C(F)(F)F)c2)C[C@@H](c2ccc(Cl)cc2)C1 | x | x | 1.3 | 0 | 0.0 | x | -5 | x
CCc1ccc(NC2=NCC(=O)N2Cc2ccc3c(c2)OCO3)cc1 | 7.5 | 6.6 | -2.0 | 0 | -0.1 | -5 | 3 | 0
COc1ccc(NC(=O)Cn2nnc(-c3ccccc3N)n2)cc1OC | 2.4 | -1.6 | -3.2 | 1 | 0.2 | 2 | 1 | 2
Cc1ccc(Nc2nc3ccccc3c(=O)s2)cc1 | -0.4 | -5.3 | 5.7 | -4 | 0.0 | 1 | -4 | -33
CC(Oc1ccccc1)C(=O)N1CCN=C1SCc1ccc(F)cc1 (stereo not given) | 3.9 | 2.6 | 3.4 | -2 | -0.6 | 5 | -5 | 15
O=C1NC2(CCCC2)C(=O)N1Cc1cc(=O)n2ccsc2n1 | -1.3 | 4.6 | 5.4 | -6 | 0.4 | -5 | x | 0
N#Cc1ccc(-c2csc(NC(=O)c3cc(-c4cccs4)nc4ccccc34)n2)cc1 | -34 | 3.7 | -3.5 | 16 | 0.7 | -4 | 7 | 16
Oc1ccc(Nc2nc(Cl)nc(NCc3ccco3)n2)cc1 | 2.9 | -0.1 | 3.4 | 0 | 0.3 | -1 | 11 | -3
Cc1ccc(C(=O)C2(C)C3c4cc(Br)ccc4OC(=O)C32C(=O)c2ccco2)cc1 (stereo not given) | 4.6 | 5.2 | 5.4 | 1 | 0.2 | 4 | 1 | 1
CCOC(=O)c1cc(-c2ccccc2)nc2ccc(C)cc12 | -47 | -1.3 | -4.8 | 3 | -0.4 | 8 | 2 | 9

An excerpt from above in order of the UCH37 inh value, descending:
canonical_smiles | UCH37 inh
CCc1ccc(NC2=NCC(=O)N2Cc2ccc3c(c2)OCO3)cc1 | 7.5
Cc1ccc(C(=O)C2(C)C3c4cc(Br)ccc4OC(=O)C32C(=O)c2ccco2)cc1 (stereo not given) | 4.6
CCOC(=O)CCCNC(=O)COC(=O)c1cc2ccccc2cc1O | -2.1
